# Choline anaer gr – growth inhibitors of anaerobic choline-fed gram-negatives, minimal medium, absorbance. AID 1963822, 2024. calls only. 0.2% of 55,000 active. Gram-negative bacterium anaerobic choline minimal medium; stronger effect = lower value; many inactives read as strong as hits in the columns shown;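 active means growth z-score on choline under -2 at 7 or 20 h with little or no fall on glycerol, limits in tiers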;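 further: stock transfer was 300 nL into about 50 µL; the organism is E. coli; final concentration not given here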
# Choline anaer gr early – further read-out of Choline anaer gr, marked with its call; z-score; measured here: choline growth z-score, timepoint 1;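 score of optical density at 7 h as mean of two plates; lower means less growth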
# Active calls of the source: *; i = inactive; & = joins results of further samples. These rows are one share of the data (hit frequency here may not be typical).
# Order of results: Choline anaer gr | Choline anaer gr early
- Cc1ccc2c(c1)C=C(C(=O)Nc1ccc(Cl)cc1)C=CO2
  i | 2.3
- COc1ccc(NC(=O)C2CCCN(S(=O)(=O)c3cc4c(cc3C)NC(=O)CO4)C2)c(OC)c1 (stereo unspecified)
  i | 0.74
- CC1CN(C2CCCCC2)c2nc3c(c(=O)n(CCN4CCCCC4)c(=O)n3C)n2C1 (stereo unspecified)
  i | 0.67
- Cc1[nH]c(C(=O)N2CCC(CC(=O)N3CCCC3)CC2)c(C)c1C
  i | -2.4
- O=C(c1cc(-c2ccc(Cl)cc2)n[nH]1)N1CCCC1
  i | 0.69
- O=C(CNC(=O)c1ccc(F)cc1)OCc1cc(=O)n2ccsc2n1
  i | -0.25
- Cc1oc(-c2ccc(OC(C)C)cc2)nc1CSc1nc(-c2cccnc2)cc(=O)[nH]1
  i | 0.59
- CN(C)C(=O)C1=CCN(C(=O)NC2CCCC2)CC1
  i | 0.68
- CCOc1ccccc1C1C2=C(CC(C)(C)CC2=O)Nc2n[nH]c(-c3ccc(C)cc3)c21 (stereo unspecified)
  i | 0.42
- Cc1ccc(-c2noc(-c3cn(C)c4cc(N5CCCCC5)c(F)cc4c3=O)n2)cc1
  i | -0.14
- CNC(=O)c1nn(-c2ccccc2F)nc1CO
  i | -1.3
- CC(C)(C)c1ccc(S(=O)(=O)NCc2ccc3c(c2)CCN3C(=O)c2ccc(F)cc2)cc1
  i | 1.5
- CCc1ccccc1S(=O)(=O)Nc1ccc2c(c1)nc(-c1ccc(C(=O)N(CC)CC)cc1)n2C
  i | 0.39
- O=C(NCCCN1CCCC1=O)C1=C2CCCN2c2ccc(F)cc2S1(=O)=O
  i | -2.4
- COc1ccc(Nc2c3c(nc4nc(C)nn24)CCCC3)cc1Cl
  i | -0.78
- Cc1ccc(-c2nc3cccnc3n2CCN)cc1
  i | 0.55
- CC(C)C(=O)n1nc(-c2ccccc2)nc1N
  i | 0.26
- O=C(NCCn1c(C(F)(F)F)nc2cccnc21)Nc1ccc(F)cc1
  i | -0.84
- CC(=O)N1CCCc2cc(S(=O)(=O)N3CCN(c4ccccc4)CC3)ccc21
  i | 0.14
- CCNC(=O)c1cnc2sc(C)c(C)n2c1=O
  i | 0.2
- NC(=O)C1CCN(C(=O)CN2C(=O)COc3ccc(C(=O)N4CCCCC4)cc32)CC1
  i | -0.48
- O=C(NC1CC1)C1(c2ccccc2F)CC1
  i | -2
- O=C(O)CCCc1ccccc1
  i | -0.69&0.1&0.3
- CCn1ccc2cc(S(=O)(=O)N3CCCC(C(=O)N4CCN(Cc5ccccc5)CC4)C3)ccc21 (stereo unspecified)
  i | -0.74
- CCn1nccc1NC(=O)Cc1ccc(Cl)cc1
  i | 0.43
- COc1ccc(-c2nc(SCC(=O)Oc3cc(C)ccc3C)n3[nH]c(=O)cc3n2)cc1
  i | 4.1
- CCOCCCNC(=O)Cc1csc2nc(-c3ccc(F)cc3)cn12
  i | 0.9
- Cc1nc2c3ccccc3nc(SCC(=O)NCCc3ccc(S(N)(=O)=O)cc3)n2n1
  i | 1.5
- COCCNC(=O)c1ccc(Cn2c(=O)c3cc(OC)c(OC)cc3n(Cc3ccc(F)cc3)c2=O)cc1
  i | -0.87
- O=C(NCC1CCCO1)c1cnn(-c2ccc(Cl)cc2)c1 (stereo unspecified)
  i | -1.7
- CC(=O)Nc1cccc(-c2nc(-c3cc4c(C)nn(-c5ccccc5)c4s3)no2)c1C
  i | 0.77
- O=C(Nc1cccc(Br)c1)N1CCN(c2cc(-c3ccccc3)ncn2)CC1
  i | 0.86
- CC(=O)OCC(=O)[C@@]1(O)[C@H](C)C[C@H]2[C@@H]3CCC4=CC(=O)C=C[C@]4(C)[C@@]3(F)[C@@H](O)C[C@@]21C
  i | 1.4
- COc1ccc(N2CC(C(=O)NCc3nnnn3-c3ccccc3)CC2=O)cc1 (stereo unspecified)
  i | -1
- COc1ccc(NC(=O)C2CCC(CNS(=O)(=O)c3cccc4cccnc34)CC2)cc1Cl (stereo unspecified)
  i | 0.85
- Cc1ccc(C(=O)c2cnc3cc4c(cc3c2S(=O)(=O)c2ccccc2)OCO4)cc1
  i | 0.34
- COc1ccc(Cl)cc1NC(=O)Nc1cccc(-c2noc(C3CCC3)n2)c1
  i | 2.1
- O=C(CN1C(=O)CSc2ccc(S(=O)(=O)N3CCOCC3)cc21)N1CCc2ccccc2C1
  i | 0.91
- CC(C)CNC(=O)c1ccc2c(=O)n(-c3cccc(F)c3)c(SCC(=O)c3c[nH]c4ccccc34)nc2c1
  i | 0.35
- Cc1nn(-c2nc3ccc(Br)cc3s2)c2c1C(c1cccc(F)c1F)CC(=O)N2 (stereo unspecified)
  i | 0.67
- Cc1cc(-c2ccc(C)c(S(=O)(=O)Nc3cccnc3)c2)on1
  i | 1.3
- Brc1cncc(-c2nc(-c3cccc(-c4csc(C5CC5)n4)c3)no2)c1
  i | 0.37
- Nc1nc(-c2ccccc2)nn1C(=O)C1CC1
  i | 0.35
- Cc1ccc(CNC(=O)C2(C)CCN(C(=O)NC3COc4ccccc4C3)CC2)cc1 (stereo unspecified)
  i | -1.5
- Cc1nn(-c2ccc3nnc(C)n3n2)c2c1C(c1ccc3c(c1)OCO3)CC(=O)N2 (stereo unspecified)
  i | 1.2

# Already shown: an excerpt of the list.
# Order of results: Choline anaer gr | Choline anaer gr early
- COc1ccc(NC(=O)C2CCC(CNS(=O)(=O)c3cccc4cccnc34)CC2)cc1Cl (stereo unspecified)
  i | 0.85
- Cc1ccc(C(=O)c2cnc3cc4c(cc3c2S(=O)(=O)c2ccccc2)OCO4)cc1
  i | 0.34
- COc1ccc(Cl)cc1NC(=O)Nc1cccc(-c2noc(C3CCC3)n2)c1
  i | 2.1
- O=C(CN1C(=O)CSc2ccc(S(=O)(=O)N3CCOCC3)cc21)N1CCc2ccccc2C1
  i | 0.91

# Next part.
# Order of results: Choline anaer gr | Choline anaer gr early
- COc1ccccc1C(=O)Nc1nc(S(=O)(=O)Cc2ccc(F)cc2)ns1
  i | 0.49
- O=C(CSCc1nnc(C(=O)Nc2ccc(F)cc2)s1)NC1CCN(Cc2ccccc2)CC1
  i | -0.6
- CCc1nc(-c2ccc(C(=O)NCC(=O)Nc3ccc(F)cc3)cc2)no1
  i | 0.9
- CC(C)N(CCC(=O)c1ccc2ccccc2c1)Cc1ccccc1
  i | -1.6&-2.5
- COCCCN[C@H]1CS(=O)(=O)C[C@@H]1S(=O)(=O)c1ccc(F)cc1
  i | 0.12
- CCc1ccc(NC(=O)Cc2c(C)[nH]n(-c3nc(C)cs3)c2=O)cc1
  i | -1.3
- COc1cc(CC(=O)N2CCN(C(=O)c3cc4cc(Br)ccc4[nH]3)CC2)ccc1O
  i | 0.6
- COC(=O)c1oc2ccccc2c1O
  i | 1.5
- O=c1[nH]c2ccc(NCc3c(F)cccc3Cl)cc2[nH]1
  i | -1.2
- CC(C)NC(=O)Cn1ccn2nc(-c3ccc4c(c3)OCO4)cc2c1=O
  i | 0.17
- CCC(C)NC(=O)CSc1nnc2n(CCC(=O)NCC(C)C)c(=O)c3ccccc3n12 (stereo unspecified)
  i | -0.55
- C=CCc1ccc(OCCn2c(C(O)CCC)nc3ccccc32)c(OC)c1 (stereo unspecified)
  i | 1.4
- COc1ccc(NC(=O)N2CCN(Cc3nc4cccnc4n3-c3cc(C)cc(C)c3)CC2)cc1OC
  i | 0.39
- COCCNC(=O)N1CCC2(CC1)Nc1ccccc1-n1cccc12
  i | -0.26
- Cc1nc(S(=O)(=O)N2C[C@H]3CN(S(=O)(=O)c4ccccc4)C[C@@H](C2)O3)cn1C
  i | -0.33
- CCOC(=O)c1ccc(NC(=O)Nc2ccc(Sc3cc(C)nc4ncnn34)cc2)cc1
  i | -0.67
- Cc1ccc(C)c(Cn2nc3c(S(=O)(=O)N4CCOCC4)cccn3c2=O)c1
  i | -2.9
- Nc1nc(Cl)nc2c1ncn2[C@@H]1O[C@H](COP(=O)(O)OP(=O)(O)OP(=O)(O)O)[C@H](O)C1O (stereo partly specified)
  i | 0.7
- O=C(Nc1ccccc1Cl)c1cc(-c2ccncc2)n[nH]1
  i | -0.06
- O=C(c1cc2c(s1)CN(C1CC1)C2)N1CCN(C2CCCCC2)CC1
  i | -0.62
- COc1ccc(CN2C(=O)c3cc(C)nn3CC2(C)C(=O)NCc2ccccc2)cc1 (stereo unspecified)
  i | -0.45
- COc1ccc(NC(=O)CCc2c(C)nn(-c3ccc4nncn4n3)c2C)c(OC)c1
  i | 1
- CC(C)Cn1c(=O)c2ccc(C(=O)NC(C)C)cc2n2c(=O)n(CC(=O)NC(C)C)nc12
  i | 0.2
- Cc1ccc(-c2n[nH]c(=O)c3c2CCCC3)cc1S(=O)(=O)N1CCCCC1
  i | -0.18
- O=C(Nc1ccc(C(=O)NC2CCN(Cc3ccccc3)CC2)cc1)C1=CSCCO1
  i | -0.28
- COc1ccc(OC)c(NC(=O)n2ncc3cc(Cl)ccc32)c1
  i | 0.11
- O=C(NC1CC1)C1CCN(c2ccc(F)cc2)C1=O (stereo unspecified)
  i | -0.79
- COc1cc(OC)cc(-c2nc3c4ccccc4n(CC(=O)c4c[nH]c5ccc(OC)cc45)c(=O)n3n2)c1
  i | -1.2
- CCOc1ccc(-c2noc(Cn3nc4ccc(-c5ccc(C)cc5)nn4c3=O)n2)cc1OC
  i | -0.49
- CCC(C)NC(=O)N1CCNC(=O)C1(C)C (stereo unspecified)
  i | -0.04
- C[C@@H]1C(=O)O[C@H]2C[C@@]34[C@H]5C[C@@H](C(C)(C)C)[C@]36[C@@H](OC(=O)[C@@H]6O)O[C@@]4(C(=O)O5)[C@]21O
  i | -1.6
- O=S(=O)(c1ccccc1Br)N1CCCC1c1nc(-c2ccc(F)cc2)no1 (stereo unspecified)
  i | -0.16
- Cc1cc2n(n1)CCC(=O)N2CCCC(=O)NCc1ccccc1
  i | -0.51
- O=C(COc1ccc(Cl)cc1)N1CCN(C(=O)c2cc3ccccc3[nH]2)CC1
  i | 0.79
- COC(=O)c1ccc2c(c1)N(C)CCS2
  i | -0.78
- Cc1ccc(-c2nc(Cn3nnc(-c4nc(-c5ccc6c(c5)OCO6)no4)c3C)c(C)o2)cc1
  i | -0.57
- COc1cccc(C2C3=C(CC(c4ccc(OC)c(OC)c4)CC3=O)Nc3onc(C)c32)c1 (stereo unspecified)
  i | -0.64
- COc1ccc(CCNC(=O)c2cc(-c3ccc(C)cc3)n[nH]2)cc1OC
  i | 0.21
- Cc1cc(SCC(=O)Nc2cccc(Cl)c2)nc2ccc(S(=O)(=O)N3CCCC3)cc12
  i | 0.35
- Cc1ccc2c(c1)[C@H]1OCC[C@H]1C(c1cc(O)ccc1Br)N2 (stereo partly specified)
  i | -0.71
- Cc1nc(CNC(=O)[C@H]2CSCN2S(=O)(=O)c2cccc(F)c2)cs1
  i | 0.04
- CC1CCCCN1Cc1nc(Cn2ccn3nc(-c4cccs4)cc3c2=O)no1 (stereo unspecified)
  i | -0.16
- CCOC(=O)c1c(NC(=O)c2snnc2C)sc2c1CCCC2
  i | -0.19
- CC1=C(c2ccc(C)c(C)c2)S(=O)(=O)N=C1N1CCCN(C(=O)C(C)(C)C)CC1
  i | -1.3
- COC(=O)c1ccc2c(=O)n(Cc3ccc(OC)cc3)c(N3CCOCC3)nc2c1
  i | -0.62
- CC1CC(C)CN(C(=O)Cn2cnc3c(nc4n3CCCCC4)c2=O)C1 (stereo unspecified)
  i | -1.4
- Cc1cccc(NCc2nc3nc(C)cc(C)n3n2)c1
  i | -0.42
- CC(C)OC(=O)c1cccc(NC(=O)C2=Cc3ccccc3OC=C2)c1
  i | 0.86
- CC(=O)N1CCc2cc(N3CC(C(=O)Nc4ccc(N5CCOCC5)cc4)CC3=O)ccc21 (stereo unspecified)
  i | 0.32
- COCCNC(=O)CN1CCn2nc(-c3ccccc3)cc2C1=O
  i | -1.6
- Fc1ccc(-c2ccc(SCc3nc(-c4ccc(Br)cc4)no3)nn2)cc1
  i | 0.97
- CCCn1cnc2cc(-c3noc(/C=C/c4ccc(OC)c(OC)c4)n3)ccc21
  i | -0.08
- COC(=O)c1ccc(NC(=O)c2ccc(=O)n(Cc3c(F)cccc3Cl)c2)cc1
  i | 0.35
- COc1cccc(-c2csc(Nc3ccc(Br)cn3)n2)c1
  i | 0.81
- COCCN(CCC(=O)N1CCNCC1)C(=O)c1cccc(Br)c1
  i | -0.71
- CCCCNC(=O)Cn1c(=O)n(CCCCC(=O)NC2CCCC2)c(=O)c2ccccc21
  i | -0.74
- COC(=O)c1c(C)sc(-c2c(-c3ccc(OC)c(OC)c3)[nH]c3c2c(=O)n(C)c(=O)n3C)c1O
  i | 0.71
- CCN(CC)S(=O)(=O)c1ccc2c(c1)N(CC(=O)Nc1cccc(C)c1C)C(=O)C1CCCN21 (stereo unspecified)
  i | -0.93
- O=C(Cn1c(=O)n(C2CC2)c(=O)c2nscc21)NC1CCCCC1
  i | 1
- CC(C)(C)NC(=O)c1cccc(-c2cc(N3CCCC3)ncn2)c1
  i | -1.6

# (cont.)
# Order of results: Choline anaer gr | Choline anaer gr early
- Cc1ccc(-n2c(=O)[nH]cc(C(=O)Nc3ccc(S(N)(=O)=O)cc3)c2=O)cc1
  i | -0.96
- O=C(Nc1noc2ccccc12)c1ccc(F)cc1
  i | -0.9
- Cc1ccc(-c2noc(-c3cnn4c(C)c(Cc5ccccc5C)c(C)nc34)n2)cc1
  i | -0.18
- Cc1csc2ncc(C(=O)N3CCCCCC3)c(=O)n12
  i | -0.07
- O=C(Cn1nc(C(=O)Nc2ccccc2)ccc1=O)NCc1ccccc1
  i | 0.72

# Among those listed so far, these have a tert-butyl group:
# Order of results: Choline anaer gr | Choline anaer gr early
- CC(C)(C)c1ccc(S(=O)(=O)NCc2ccc3c(c2)CCN3C(=O)c2ccc(F)cc2)cc1
  i | 1.5
- C[C@@H]1C(=O)O[C@H]2C[C@@]34[C@H]5C[C@@H](C(C)(C)C)[C@]36[C@@H](OC(=O)[C@@H]6O)O[C@@]4(C(=O)O5)[C@]21O
  i | -1.6
- CC1=C(c2ccc(C)c(C)c2)S(=O)(=O)N=C1N1CCCN(C(=O)C(C)(C)C)CC1
  i | -1.3
- CC(C)(C)NC(=O)c1cccc(-c2cc(N3CCCC3)ncn2)c1
  i | -1.6

# Assay outcomes as filed in PubChem BioAssay.
